Source: PubChem BioAssay (National Center for Advancing Translational Sciences (NCATS))
Sfp PPTase inh: qHTS Assay for Inhibitors of Bacillus subtilis Sfp phosphopantetheinyl transferase (PPTase) | 4'-phosphopantetheinyl transferase ffp (Bacillus subtilis), Q9F4F7 | Biochemical Sfp PPTase activity, qHTS | Potency, µM, for inactives: max response, negative = inhibition, usual class: inhibitors | actives 3.5% (n = 310,000) | AID 1490, 2009; active means well fitted inhibition curve with a large enough effect; inconclusive means small, poorly fitted or top-dose-only effect, or another doubt; inactive means no such curve, though single readings can be large or run the other way;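 further: the enzyme is Sfp with the accession as filed and its product quenches rhodamine fluorescence; potency means the concentration at half of the fitted maximal effect; 0% = enzyme reaction without inhibitor and -100% = no enzyme wells; top concentration of the series not given in the record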
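Step 1, compound plus 15 nM Sfp-PPTase, 15 min, room temperature. Step 2, add rhodamine-CoA (5 uM) and BHQ-2-YbbR (12.5 uM). Step 3, read 525/598 nm fluorescence at 0 and 30 min.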
gsp antag: qHTS for Antagonists of gsp, the Etiologic Mutation Responsible for Fibrous Dysplasia/McCune-Albright Syndrome: qHTS; gsp-mutant cells, cAMP HTRF, 30 min; control for the full effect not named in the record; actives 0.4% (n = 340,000); Potency, µM (highest dose often 76.9 µM), inactives show top-dose activity change, negative = inhibition, actives largely listed as inhibitors; active = falling curve of any shape with a large fitted effect; inconclusive = falling curve, mostly with a smaller effect; inactive = flat or rising curve; cell line not stated here;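 further: intracellular cAMP measured with PDE inhibitor Ro 20-1724 present during compound exposure; potency means the concentration at half of the fitted maximal effect; on the % scale 0 is the no-effect control and ±100 the full control effect; nearly all actives have a fitted effect of over 65% in size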
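Measurement of cellular cAMP by homogeneous time-resolved fluorescence following a 30 min compound exposure at 37C. The PDE inhibitor […] was present throughout; the assay buffer was DPBS with 0.05% BSA and 0.005% Tween 20.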
TRPML1 inh: qHTS for Inhibitors of the Human Mucolipin Transient Receptor Potential 1 (TRPML1); actives 0.02% (n = 390,000); Mucolipin-1 (Homo sapiens), Q9GZU1; TRPML1-inducible cells, Ca2+ dye fluorescence, FDSS; active compounds read low; inhibition of EC80 agonist-evoked calcium signal; activity change, negative = inhibition, % (test concentration not listed); in the data active means activity change below about -50%; inconclusive means about -30% to -50%; inactive means above about -30%;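 further: stimulus is agonist 54-4 at its EC80 concentration; on the % scale 0 is the no-effect control and ±100 the full control effect; compound concentration not given in the record; the text of the record puts the active cut at -80%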
Target sequence (Q9GZU1 whole entry, looked up): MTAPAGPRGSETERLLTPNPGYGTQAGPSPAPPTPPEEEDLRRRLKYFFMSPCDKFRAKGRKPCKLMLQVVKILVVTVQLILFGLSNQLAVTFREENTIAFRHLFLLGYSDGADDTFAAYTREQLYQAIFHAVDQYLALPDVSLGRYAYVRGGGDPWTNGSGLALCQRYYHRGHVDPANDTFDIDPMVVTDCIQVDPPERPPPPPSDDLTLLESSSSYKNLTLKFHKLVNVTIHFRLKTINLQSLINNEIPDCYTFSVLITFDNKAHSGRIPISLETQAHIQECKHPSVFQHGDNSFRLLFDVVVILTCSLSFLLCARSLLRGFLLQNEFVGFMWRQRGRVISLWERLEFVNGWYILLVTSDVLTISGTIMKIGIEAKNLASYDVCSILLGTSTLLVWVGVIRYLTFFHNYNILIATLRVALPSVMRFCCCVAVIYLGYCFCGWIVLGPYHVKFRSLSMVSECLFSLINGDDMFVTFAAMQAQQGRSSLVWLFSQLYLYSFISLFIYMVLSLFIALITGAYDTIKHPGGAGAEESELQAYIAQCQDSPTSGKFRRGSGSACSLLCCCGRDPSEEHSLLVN
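Calcium fluorescence in TRPML1-DL cells induced overnight with Tet: a 110 s read after compound pin addition, then a 110 s antagonist read after challenge with 54-4 at 4 uM final (EC80).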
ClpP mod: qHTS Assay for Activators of ClpP | ATP-dependent Clp protease proteolytic subunit (Bacillus subtilis (strain 168)), P80244 | purified B. subtilis ClpP, FRET peptide cleavage, 20 min | Potency, µM (top dose mostly 57.5 µM), for inactives: at the top dose activity change, negative = active | actives 1.9% (n = 340,000); active = well fitted falling curve with a large enough effect; inconclusive = small, poorly fitted or top-dose-only effect; inactive = no such curve, though single readings can be large or run the other way; further: potency means the concentration at half of the fitted maximal effect; the source files actives as falling curves though it sought activators and does not explain the sign; nearly all actives have a fitted effect of over 65% in size; many hits overshoot -100%
Target sequence (P80244 whole entry, looked up): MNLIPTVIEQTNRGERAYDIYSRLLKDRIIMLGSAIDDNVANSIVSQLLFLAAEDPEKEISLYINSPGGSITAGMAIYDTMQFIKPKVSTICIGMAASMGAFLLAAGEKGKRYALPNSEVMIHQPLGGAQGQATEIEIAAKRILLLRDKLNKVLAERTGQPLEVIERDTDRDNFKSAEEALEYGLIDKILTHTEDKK
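Buffer: 100 mM Tris/HCl pH8, 100 mM KCl, 0.05% low protease BSA, 2.5% glycerol, 0.01% Tween-20. ClpP 10 microg/mL final; 20 min RT; delta FRET normalized to ADEP and DMSO controls.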
gsp agonist: qHTS for Agonist of gsp, the Etiologic Mutation Responsible for Fibrous Dysplasia/McCune-Albright Syndrome: qHTS; gsp mutant cells, cAMP HTRF, 30 min; control for the full effect not named in the record; Potency, µM (highest dose often 76.9 µM), for the others: at the highest dose activation (cAMP increase), hits mostly activators; actives 0.13% (n = 340,000); active = well fitted activation curve with a large enough effect; inconclusive = small, poorly fitted or top-dose-only effect, or another doubt; inactive = no such curve, though single readings can be large or run the other way; cell line not stated here;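 further: phosphodiesterase inhibitor Ro 20-1724 added with compounds to block cAMP breakdown; potency means the concentration at half of the fitted maximal effect; nearly all actives have a fitted effect of over 60% in size; about a fifth of the inactives were tested at one dose only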
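Cells in DMEM/10% FBS with G418 were pretreated with compounds in DMSO plus […] (300 uM stock) for 30 min at 37C. cAMP was measured by HTRF (cAMP-d2 plus anti-cAMP antibody-K) after 30 min at room temperature.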
TRPV1 potentiator: HTS Assay for Compounds that Act as Potentiators of the Vanilloid Receptor 1 | TRPV1-expressing cells, Fluo-8 calcium influx, capsaicin EC20 potentiation; host cell line not named in the record; control for the full effect not named in the record | potentiation, % at 8.33 µM | actives 0.02% (n = 320,000); active means potentiation above 80%; inconclusive means 30% to 80%; inactive means below 30%; further: 0% is about no effect
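Cells expressing TRPV1 were dye-loaded with Fluo-8 and read kinetically: 10 s baseline, 3 min after compound (agonist portion), then 2 min after EC20 capsaicin (allosteric enhancer portion). Calcium-bound dye fluorescence at 480/520 nm.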
Menin MLL FP FL: qHTS Assay for Inhibitors Targeting the Menin-MLL Interaction in MLL Related Leukemias: Competition With Fluorescein Labeled MLL-derived Peptide; 290,000 tested, under 10 active; FP activity change, % at 61.4 µM; Fluorescence polarization, fluorescein-MLL peptide displacement from menin; AID 1766, 2009; inconclusive = falling polarisation curve, or a change in total fluorescence; inactive = total fluorescence flat and polarisation flat or rising; no compound was filed as active; the % refers to the polarisation; negative = inhibition;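 further: % of control where 0% means no effect; inhibitors lower the polarisation; unlabelled MLL peptide was the positive control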
* marks the source's active call; other numbers are inactive results; ? = inconclusive; · = not tested or not shown; & = joins results of further samples; [ ] = another dose, or the depositor's remark. This is a random part of the collection; about 4.9% have a hit in one of these screens.

SMILES,Sfp PPTase inh,gsp antag,TRPML1 inh,ClpP mod,gsp agonist,TRPV1 potentiator,Menin MLL FP FL
CCNC(=O)/C(C#N)=C/c1c(N2CCCCCC2)nc2c(C)cccn2c1=O,2.6%,-0.3%,-0.4,15.8µM*,4.5%[15.4 µM],-14.6,-2.0
CCOC(=O)c1csc(NC(=O)Nc2cccc(Cl)c2)n1,-7.7%,-4.2%,-10.6,-4.5%,14.1%,-3.0,-3.4
c1ccc2c(c1)Nc1cc3ccccc3cc1O2,·,-16.2%,7.6,?,-46.2%[inhibitor],·,·
CCOCC(=O)Nc1ccc(C)c(Cl)c1,1.9%,17.1%,3.0,-0.9%,-1.3%,-7.1,0.5
CCN1CN=C(NS(=O)(=O)c2ccc(C)cc2)NC1,15.2%,8.9%,-1.2,-0.1%,-0.9%,-6.1,0.5
Cc1ccccc1NC(=O)CC1C(=O)NCCN1C(=O)c1cccc(Cl)c1 (stereo not given),12.3%,6.7%,-5.9&0.7,-1.9%&-0.7%,-3.3%,-1.5,0.2
COc1ccc(/C=C/C(=O)c2ccc(O)cc2)cc1,0.5%,-16.1%,·,-4.2%,·,-12.8,-3.4
COc1ccc(OC)c(C2=Nn3c(nnc3-c3ccco3)SC2)c1,50.1µM*,6.0%,9.7,-1.9%,9.5%,·,7.7
Cc1ccc(NC2=C(CC(=O)O)C(c3ccccc3)N(c3ccc(C)cc3)C2=O)cc1 (stereo not given),10.8%,-33.9%,31.8,-0.5%,6.8%,4.4,2.7
COCC(=O)N1CCC(Oc2ccc(C(=O)NCCCC3CCCC3)cc2)CC1,10.0%,1.5%,30.3,1.4%,-5.2%[15.4 µM],5.1,·
CCOc1ccc(N=Cc2c(O)c3ccccc3oc2=O)cc1,10.0%,1.3%,-13.5,-0.8%,-19.7%,12.7,6.2
CCOc1ccccc1CNS(=O)(=O)c1cnc[nH]1,10.3%,-3.0%,5.0,-0.7%,-25.0%,-11.8,8.0
Cc1ccc(NC(=S)Nc2ccc(F)cc2)cc1,5.9%,-6.4%,19.5,-0.6%,-7.8%,5.4,-0.5
CCCCOc1ccc(C(C)NC(=O)C2CCCN(S(=O)(=O)CC)C2)cc1 (stereo not given),7.2%,-6.6%,-4.5,2.1%,-19.0%,-0.5,0.2
CC(NC(=O)C12CC3CC(CC(C3)C1)C2)C(=O)NCCN(C)C (stereo not given),22.8%,16.3%,21.1,1.4%,-25.4%,-4.7,-0.9
COC(=O)c1ccc2nccnc2c1,7.4%,10.3%,-13.7,2.2%,-1.3%[15.4 µM],-15.5,5.8
COc1ccccc1C(=O)NC(CCSC)C(=O)NNC(=O)c1ccncc1 (stereo not given),·,3.3%,-0.5,0.6%,-4.2%,5.7,·
CSc1nc(N)c(C(=O)Nc2ccc([N+](=O)[O-])cc2)s1,-1.3%,1.5%,9.2,-0.4%,?,15.5,-0.5
Cc1ccc(CN2CCN(C(=O)CC(C)C)CC2)cc1,-26.7%,6.0%,8.7,-3.4%,-3.4%,-7.5,-0.2
O=C(COC(=O)/C=C/c1ccc(S(=O)(=O)N2CCOCC2)cc1)NCc1ccc(F)cc1,23.8%,·,-4.3,·,-1.0%[15.4 µM],-3.4,0.0
CCc1c(C)nc2ccc(Br)cc2c1Cl,3.8%,12.8%,-12.0,0.7%,?,-9.8,1.5
Cn1cccc1C(=O)OCc1csc(-c2ccccc2)n1,?,-41.5%,5.2,-0.5%,25.5%,-1.2,4.3
C(=N\Nc1nc(N2CCCC2)nc(N2CCCC2)n1)/c1ccccc1OCc1ccccc1,11.0%,-15.0%,37.1,·,3.6%,14.9,-0.7
O=C(CSc1c2c(nc3ccc(Cl)cc13)CCCC2)NCCCN1CCOCC1,14.8%,-1.7%,6.1,2.5%,2.2%,-15.8,1.4
COc1ccc(N2CCN(C(c3ccc4ncccc4c3)c3nnnn3C(C)(C)C)CC2)cc1 (stereo not given),1.3%,-10.2%,12.8,0.7%,-7.5%,-10.1,-2.1
CCOC(=O)C1=C2SCCN2C(=O)C(C#N)C1(C)C (stereo not given),5.2%,-4.4%,-12.5,0.3%,-0.5%,-3.0,2.2
Cc1ccc(-c2nc(CS(=O)CC(=O)NC3CCCC3)c(C)o2)cc1 (stereo not given),-5.9%,6.0%,5.2,-11.6%,?,-20.5,-1.6
CC(=O)Nc1ccc(N/C=C/C(=O)c2ccc(C)cc2)cc1,11.5%,-1.5%,43.3,-3.0%,12.8%,-1.9,6.7
O=C(c1cccc(Cl)c1)N1CCCC(C(=O)N2CCCCCC2)C1 (stereo not given),-3.4%,5.6%,-9.7,-0.4%,0.7%,4.9,1.4
COc1cc([N+](=O)[O-])ccc1NC(=O)NNC(=O)CCc1ccccc1,6.6%,-15.7%,-0.6,0.2%,6.7%,-13.1,-0.6
CCCCN(C(=S)NC(=O)c1cc(OC)c(OC)c(OC)c1)c1c(N)n(Cc2ccccc2)c(=O)[nH]c1=O,5.3%,13.0%,-7.2,-1.2%,-4.4%,14.8,5.8
O=C(C1CCN(C2CCN(Cc3ccsc3)CC2)CC1)N1CCOCC1,5.2%,16.4%,-5.1,0.8%,-30.0%[inhibitor],-6.0,·
CCCCOc1ccc(OC(=O)Nc2cc(Cl)ccc2OC)cc1,-8.4%,-4.4%,-0.7,4.0%,-2.3%,21.5,-1.5
Cc1ccc(C2CC(c3ccccc3)=NN2C(=O)CSc2nnc(-c3ccncc3)n2C)o1 (stereo not given),-0.6%,-12.9%,-2.9,-1.6%,-35.1%[inhibitor],-24.8,4.7
Cc1cc2ccccc2c(=O)[nH]1,12.9%,3.3%,14.4,?,-15.0%,-26.5,7.2
O=C(O)C1C2CCCCC2=C2CCCCC2C1C(=O)c1ccccc1 (stereo not given),20.7%,13.7%,17.6,0.0%,-58.9%[inhibitor],·,-2.6
COc1ccc(S(=O)(=O)N2CCC(C(=O)N3CCc4ccccc4C3)CC2)cc1,-17.7%,5.9%,6.1,0.5%,-28.5%,-0.7,-2.3
Cc1cc(S(=O)(=O)NCC(=O)O)ccc1F,9.0%,1.4%,7.2,0.7%,-14.7%,2.6,0.0
O=C1/C(=C\c2ccc(Br)o2)SC(=Nc2ccccc2)N1c1ccccc1,-15.5%,-11.2%,-7.7,1.0%,-8.9%,2.9,1.5
NC(=O)c1ccsc1NC(=O)COC(=O)CNC(=O)c1ccc(F)cc1,·,-7.5%,24.2,-3.0%,-11.5%,-6.9,·
C=CCn1c(SCC(=O)Nc2ccc(NC(C)=O)cc2)nc2sc(C)c(C)c2c1=O,·,-11.1%,-4.3,9.9%,4.8%,-14.3,·
CN1CC(=O)N(CC(=O)N2N=C(c3ccc(Cl)cc3)CC2c2ccco2)C1=O (stereo not given),20µM*,0.2%,-5.5,-3.8%,-2.1%[15.4 µM],14.5,5.7
O=C1C2ON(c3ccc(Br)cc3)C(c3cccnc3)C2C(=O)N1C1CCCCC1 (stereo not given),25.0%,3.6%,-2.2,?,-36.5%[inhibitor],-6.4,3.2
Cn1c(COc2ccccc2)nnc1SCC(=O)Nc1ccc(S(N)(=O)=O)cc1,3.2%,-8.3%,-11.9,-2.8%,1.7%,6.2,4.9
COc1ccccc1NS(=O)(=O)c1ccc(N/N=C(\C)C(C)C)c([N+](=O)[O-])c1,1.0%,-1.7%,-14.8,1.8%,-44.0%[inhibitor],-14.2,-2.0
Cc1ccc(N2CCN(C(=O)N3CCOCC3)CC2)c(C)c1,19.5%,7.4%,-9.7,·,-14.0%[15.4 µM],-7.8,-1.1
CC(C)N(c1ccccc1)c1ncnc(NCCC(=O)O)c1[N+](=O)[O-],13.7%,-8.6%,85.6,2.6%,2.8%,-0.4,2.2
CCCn1c(=N)c(C#N)cc2c(=O)n3cccc(C)c3nc21,23.0%,·,·,·,·,18.4,-4.7
Cc1ccc2c(c1)C1(OCCO1)C(=O)N2,5.9%,2.0%,16.6,-2.1%,-16.2%,-6.3,-1.5
COC(=O)c1ccc(N=NNc2ccccc2)cc1,?,4.3%,-21.2,-2.1%,15.7%,-1.7,5.2
COc1ccc(NC(=O)CSc2nnc(Cc3ccccc3)o2)c(OC)c1,6.3%,2.8%,-2.2,0.0%,-8.6%,4.2,1.0
COc1ccccc1Nc1ccc([N+](=O)[O-])cn1,6.6%,4.3%,-14.2,·,-9.9%,6.1,-0.4
Cn1c(CCc2ccc(N)cc2)nc2ccccc21,-14.7%,-9.1%,-21.6,-4.1%,31.7%,-8.0,-0.7
CC(=O)c1ccc(OCc2cn(CC(=O)c3ccc(O)cc3)nn2)c(C)c1,·,·,17.7,1.2%,?,·,·
